Screens (PubChem)
MITF inhib – inhibitors of MITF, primary screen, MITF inhibitor project, cell-based, luminescence; TRPM1 promoter luciferase, 24 h; 0.28% of 37,000 active; inhibition, % (no concentration beside the values);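 active = most replicates at 85% or more, or half of them and the mean; inconclusive = half reach 85% but not the mean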;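 also: human melanocyte line stably carrying TRPM1 promoter luciferase reporter; 0% = vehicle wells and 100% = a positive control; the first replicate is given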
YB-1 expr inh – inhibitors of YB-1 gene expression, primary screen, cell-based, fluorescence | U2OS, qRT-PCR YB-1 vs CDIP delta delta Cp, 16 h; active compounds read high; zero = DMSO, each unit about twofold | delta delta Cp (YB-1 minus CDIP) (concentration not given with the values) | 0.37% of 30,000 active | AID 434959, 2010;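 active = delta delta Cp rounded down to an integer at or above 3, about 3 SD of DMSO wells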;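 also: higher means less YB-1 transcript or more CDIP transcript relative to DMSO; stock transfer was 100 nL into about 100 µL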
Hedgehog inh – Hedgehog pathway signaling inhibitors, primary screen, luminescence, Shh-LIGHT2 cells, Gli-luciferase. Shh-LIGHT2 Gli-luciferase reporter, 30 h. inhibition, % (test concentration not listed). 2.1% of 22,000 active;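 active = replicate mean of 65% or more; inconclusive = mean lower but half the replicates past it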;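 also: pathway switched on by Shh-conditioned medium diluted 1 in 25 in low serum; 100 nL library stock added to about 40 µL; 0% = median of neutral wells and 100% = positive control level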
PD-1 reversal – activators reversing PD-1 mediated T-cell inhibition, primary screen, luminescence, primary human CD4 T cells, PD-L1 beads | CellTiter-Glo 96 h | activation, % (no concentration beside the values) | 29,000 tested, under 10 active;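 active = replicate mean of 50% or more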;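 also: 0% = median vehicle wells and 100% = positive control; 100 nL library stock added to about 50 µL; numbers are from one replicate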
An asterisk follows results filed as active; ? = inconclusive; / = not tested or not shown.

SMILES	MITF inhib	YB-1 expr inh	Hedgehog inh	PD-1 reversal
C[C@@H]1CN([C@H](C)CO)C(=O)Cc2cc(NS(=O)(=O)c3cn(C)cn3)ccc2O[C@H]1CN(C)Cc1ccc(-c2ccccc2)cc1	1	0.01	-30	-0.5
O=C(CSc1nnc(-c2ccccn2)n1-c1ccccc1)Nc1ccc(Br)cc1	12	/	/	-1.8
COc1ccc(S(=O)(=O)Nc2cccc3c2O[C@H](CN(C)S(=O)(=O)c2ccc(OC)cc2)[C@@H](C)CN([C@H](C)CO)C3=O)cc1	3	-0.21	9	-0.3
COc1ccc(N(CC(=O)Nc2cccc(Br)c2)S(C)(=O)=O)cc1	1	/	/	0.2
C[C@H]1CN([C@@H](C)CO)C(=O)Cc2cc(NC(=O)Cn3cnnn3)ccc2O[C@H]1CN(C)C(=O)NC1CCCCC1	-2	-0.19	11	1.8
CCN(CCS(=O)(=O)c1ccc(C)cc1)C(=O)c1ccc(-c2cc(C(F)(F)F)nn2C)s1	12	0.34	13	-0.9
C[C@@H]1CN([C@@H](C)CO)C(=O)c2cccc(NC(=O)Nc3ccc4c(c3)OCO4)c2O[C@@H]1CN(C)Cc1ccc(Oc2ccccc2)cc1	-5	0.38	56	-3.8
CC(C(N)=O)N(c1ccc(Cl)cc1)S(C)(=O)=O (centres undefined)	2	/	/	1.9
C[C@H]1CN([C@@H](C)CO)C(=O)Cc2cc(NC(=O)Cn3cnnn3)ccc2O[C@@H]1CN(C)C(=O)Nc1ccc2c(c1)OCO2	-9	-0.53	/	1.0
COc1ccc(S(=O)(=O)N(C)C[C@H]2Oc3ccc(NC(=O)Nc4cccc5ccccc45)cc3C(=O)N([C@@H](C)CO)C[C@H]2C)cc1	0	-0.3	18	-0.2
C[C@H](CO)N1C[C@H](C)[C@H](CN(C)Cc2ccccc2)Oc2ccc(NC(=O)C3CC3)cc2C1=O	-2	-0.3	/	-2.6
C[C@@H]1CCCCO[C@@H](CN(C)CC2CCCCC2)[C@@H](C)CN([C@H](C)CO)C(=O)c2cc(N(C)C)ccc2O1	-13	-0.056	3	1.2
CCOc1ccc(S(=O)(=O)NCc2ccco2)c(C)c1C	10	/	/	-1.9
CCOC(=O)CC1=NC(=O)CS1	-19	-0.45	/	1.0
Cn1c2ccccc2c2nnc(SCC(=O)Nc3ccc(Cl)cc3)nc21	13	/	/	2.0
COc1ccc(CN(C)C[C@H]2Oc3c(NC(=O)Nc4ccccc4)cccc3C(=O)N([C@H](C)CO)C[C@@H]2C)cc1	-1	0.013	-86	-1.6
C[C@@H]1CN([C@H](C)CO)C(=O)c2cccc(NC(=O)c3cnccn3)c2O[C@@H]1CN(C)C	-2	0.3	17	1.9
Cc1noc(C)c1NC(=O)N(C)C[C@@H]1OCCCC[C@@H](C)Oc2ccc(NC(=O)Nc3cccc4ccccc34)cc2C(=O)N([C@H](C)CO)C[C@@H]1C	-8	0.14	-4	0.7
COc1ccc(S(=O)(=O)N(C)C[C@@H]2Oc3c(NC(=O)c4ccc(-c5nccs5)cc4)cccc3C(=O)N([C@@H](C)CO)C[C@H]2C)cc1	-2	0.088	2	3.1
C[C@H](CO)N1C[C@H](C)[C@@H](CN(C)C(=O)Nc2ccccc2)Oc2ccc(NC(=O)Nc3cccc4ccccc34)cc2C1=O	14	0.096	-21	-2.4
Cc1ccc(S(=O)(=O)Nc2ccc3c(c2)C(=O)N([C@H](C)CO)C[C@H](C)[C@@H](CN(C)C)O3)cc1	2	-0.18	-60	0.9
Cc1noc(C)c1NC(=O)N(C)C[C@@H]1Oc2ccc(NC(=O)Cc3cn(C)c4ccccc34)cc2C(=O)N([C@H](C)CO)C[C@@H]1C	12	-0.28	15	0.5
COc1ccc(S(=O)(=O)N2CCc3ccccc3C2)cc1	10	0.1	18	2.5
COCc1c(Br)c(C)nc(OCC(=O)O)c1C#N	-8	/	/	3.6

Ordered by length of the SMILES (low to high): some entries from above
SMILES	MITF inhib	YB-1 expr inh	Hedgehog inh	PD-1 reversal
CCOC(=O)CC1=NC(=O)CS1	-19	-0.45	/	1.0
COCc1c(Br)c(C)nc(OCC(=O)O)c1C#N	-8	/	/	3.6
COc1ccc(S(=O)(=O)N2CCc3ccccc3C2)cc1	10	0.1	18	2.5
Cn1c2ccccc2c2nnc(SCC(=O)Nc3ccc(Cl)cc3)nc21	13	/	/	2.0
C[C@@H]1CN([C@H](C)CO)C(=O)c2cccc(NC(=O)c3cnccn3)c2O[C@@H]1CN(C)C	-2	0.3	17	1.9
C[C@H](CO)N1C[C@H](C)[C@H](CN(C)Cc2ccccc2)Oc2ccc(NC(=O)C3CC3)cc2C1=O	-2	-0.3	/	-2.6
Cc1ccc(S(=O)(=O)Nc2ccc3c(c2)C(=O)N([C@H](C)CO)C[C@H](C)[C@@H](CN(C)C)O3)cc1	2	-0.18	-60	0.9
C[C@@H]1CCCCO[C@@H](CN(C)CC2CCCCC2)[C@@H](C)CN([C@H](C)CO)C(=O)c2cc(N(C)C)ccc2O1	-13	-0.056	3	1.2
C[C@H](CO)N1C[C@H](C)[C@@H](CN(C)C(=O)Nc2ccccc2)Oc2ccc(NC(=O)Nc3cccc4ccccc34)cc2C1=O	14	0.096	-21	-2.4
C[C@H]1CN([C@@H](C)CO)C(=O)Cc2cc(NC(=O)Cn3cnnn3)ccc2O[C@@H]1CN(C)C(=O)Nc1ccc2c(c1)OCO2	-9	-0.53	/	1.0
Cc1noc(C)c1NC(=O)N(C)C[C@@H]1Oc2ccc(NC(=O)Cc3cn(C)c4ccccc34)cc2C(=O)N([C@H](C)CO)C[C@@H]1C	12	-0.28	15	0.5
COc1ccc(S(=O)(=O)N(C)C[C@H]2Oc3ccc(NC(=O)Nc4cccc5ccccc45)cc3C(=O)N([C@@H](C)CO)C[C@H]2C)cc1	0	-0.3	18	-0.2
COc1ccc(S(=O)(=O)N(C)C[C@@H]2Oc3c(NC(=O)c4ccc(-c5nccs5)cc4)cccc3C(=O)N([C@@H](C)CO)C[C@H]2C)cc1	-2	0.088	2	3.1
Cc1noc(C)c1NC(=O)N(C)C[C@@H]1OCCCC[C@@H](C)Oc2ccc(NC(=O)Nc3cccc4ccccc34)cc2C(=O)N([C@H](C)CO)C[C@@H]1C	-8	0.14	-4	0.7

Additional results follow.
SMILES	MITF inhib	YB-1 expr inh	Hedgehog inh	PD-1 reversal
C[C@H]1CN([C@@H](C)CO)C(=O)Cc2cc(NC(=O)CCCN(C)C)ccc2O[C@@H]1CN(C)CC1CCCCC1	10	0.23	-27	/
C[C@@H]1CN([C@@H](C)CO)C(=O)c2cc(NS(=O)(=O)c3ccc(Cl)cc3)ccc2O[C@@H]1CN(C)S(=O)(=O)c1ccc(Cl)cc1	61	0.33	54	-0.7
Cc1noc(C)c1S(=O)(=O)Nc1ccc2c(c1)C(=O)N([C@@H](C)CO)C[C@@H](C)[C@@H](CN(C)S(=O)(=O)c1ccc(F)cc1)O2	9	0.57	7	-0.4
CNC[C@H]1OCCCC[C@@H](C)Oc2ccc(NC(=O)Nc3ccc(OC)cc3)cc2C(=O)N([C@H](C)CO)C[C@@H]1C	-7	0.066	/	0.5
C[C@H](CO)N1C[C@H](C)[C@@H](CN(C)Cc2ccc(C(F)(F)F)cc2)Oc2ccc(NS(=O)(=O)c3cn(C)cn3)cc2C1=O	-5	0.21	-29	1.7
C[C@H]1CN([C@@H](C)CO)C(=O)c2cccc(NS(=O)(=O)c3ccccc3)c2O[C@@H]1CN(C)CC1CCCCC1	-3	0.28	18	/
COc1ccc(S(=O)(=O)N(C)C[C@H]2Oc3c(NC(=O)C4CC4)cccc3C(=O)N([C@@H](C)CO)C[C@@H]2C)cc1	11	-0.18	15	1.4
C[C@H](CO)N1C[C@H](C)[C@H](CN(C)C(=O)Nc2cccc3ccccc23)Oc2ccc(NS(C)(=O)=O)cc2CC1=O	-4	2.8	11	0.0
C[C@H](CO)N1C[C@H](C)[C@H](CN(C)Cc2ccc(Oc3ccccc3)cc2)Oc2ccc(NS(=O)(=O)c3ccc(F)cc3)cc2CC1=O	-8	-0.092	-18	1.0
CCCn1c(=N)n(CC(O)c2ccccc2)c2ccccc21 (centres undefined)	-26	-0.23	8	-0.3
COc1cc(NC(=O)CCn2cnc3ccccc3c2=O)c(OC)cc1Cl	-6	/	/	1.0
COc1ccc(NC(=O)Nc2ccc3c(c2)CC(=O)N([C@@H](C)CO)C[C@H](C)[C@H](CN(C)S(=O)(=O)c2ccc(F)cc2)O3)cc1	1	0.35	-14	/

Some entries already given, showing only MITF inhib.
molecule | MITF inhib
C[C@H](CO)N1C[C@H](C)[C@H](CN(C)C(=O)Nc2cccc3ccccc23)Oc2ccc(NS(C)(=O)=O)cc2CC1=O | -4
C[C@H]1CN([C@@H](C)CO)C(=O)Cc2cc(NC(=O)CCCN(C)C)ccc2O[C@@H]1CN(C)CC1CCCCC1 | 10

(further entries)
SMILES	MITF inhib	YB-1 expr inh	Hedgehog inh	PD-1 reversal
C[C@@H]1CN([C@H](C)CO)C(=O)c2cc(NC(=O)Nc3ccccc3)ccc2O[C@@H]1CN(C)Cc1ccccc1	0	-0.27	7	0.3
C[C@H]1CN([C@@H](C)CO)C(=O)c2cc(NS(=O)(=O)c3ccc(F)cc3)ccc2O[C@@H]1CN(C)Cc1ccc(Oc2ccccc2)cc1	15	-0.49	30	-2.3
C[C@H](CO)N1C[C@H](C)[C@@H](CN(C)C(=O)NC2CCCCC2)Oc2ccc(NC(=O)Nc3ccc(C(F)(F)F)cc3)cc2C1=O	9	-0.17	0	-2.7
C[C@@H]1CN([C@@H](C)CO)C(=O)Cc2cc(N(C)C)ccc2O[C@@H]1CN(C)C(=O)Nc1cccc2ccccc12	2	-0.099	12	1.5
O=C(CSc1ncn[nH]1)Nc1ccc(I)cc1	-12	/	/	0.8
Cc1ccc(S(=O)(=O)N(C)C[C@@H]2Oc3c(NC(=O)NC4CCCCC4)cccc3C(=O)N([C@@H](C)CO)C[C@H]2C)cc1	16	-0.79	-54	-2.3
CC1(CCOC2OC(CO)C(O)C(O)C2O)CCC2C(=CCC3C(C)(C(=O)O)CCCC23C)C1 (centres undefined)	12	-0.45	-17	0.4
Cc1ccc(S(=O)(=O)Nc2ccc3c(c2)CC(=O)N([C@H](C)CO)C[C@@H](C)[C@@H](CN(C)CC2CC2)O3)cc1	-7	-0.48	/	0.4
Cn1c(SCC(=O)Nc2cc(=O)n(C)c(=O)n2C)nc2sc3c(c2c1=O)CCC3	-7	/	/	0.7
COc1ccc(NC(=O)N(C)C[C@H]2Oc3ccc(NC(=O)CCCCCC(=O)Nc4ccccc4N)cc3C(=O)N([C@@H](C)CO)C[C@H]2C)cc1	-11	0.25	/	0.6
C[C@H](CO)N1C[C@H](C)[C@@H](CN(C)Cc2ccc(C(=O)O)cc2)Oc2ccc(NC(=O)Cc3cn(C)c4ccccc34)cc2C1=O	9	-0.13	-17	0.0
C[C@H]1CN([C@@H](C)CO)C(=O)c2cc(NC(=O)Cc3cn(C)c4ccccc34)ccc2O[C@@H]1CN(C)Cc1ccc(C(F)(F)F)cc1	24	-0.46	/	/
COc1ccc(S(=O)(=O)N(C)C[C@H]2Oc3c(cccc3N(C)C)C(=O)N([C@@H](C)CO)C[C@H]2C)cc1	-3	-0.1	-3	/
C[C@@H]1CN([C@H](C)CO)C(=O)Cc2cc(NC(=O)C3CC3)ccc2O[C@H]1CN(C)Cc1ccc(Oc2ccccc2)cc1	8	-0.47	-5	1.9
O=C(C(Cc1ccccc1Cl)C(=O)N1CCc2ccccc21)N1CCc2ccccc21	11	-0.13	-27	-0.3
O=C(O)c1cc2cc(Cl)ccc2[nH]1	?	-0.093	-7	/
Cc1ccc(NC(=O)CSC2CC(=O)N(c3ccc(Br)cc3)C2=O)cc1Cl (centres undefined)	-4	/	/	0.3
COc1ccc(C2(C(=O)NCCN3CCOCC3)CCOCC2)cc1	-10	/	/	-0.2
C[C@@H]1CN([C@@H](C)CO)C(=O)c2cc(NC(=O)Cc3cn(C)c4ccccc34)ccc2O[C@H]1CN(C)C(=O)Nc1ccc(C(F)(F)F)cc1	23	0.11	7	/
Cc1cc(Cl)c(S(=O)(=O)Nc2cc(Cl)ccc2Cl)cc1OCC(N)=O	4	/	/	0.6

Not all compounds are listed (hit frequency here may not be typical).
